# Screens from PubChem BioAssay.
# HSF1 inhib = HSF1 inhibitors in luciferase reporter cells, primary screen, cell-based, NIH3T3, luminescence. NIH3T3-HGL HSE-luciferase, MG132-induced, luminescence 8 h; hits give low values. activity change, negative = inhibition, % at 7.5 µM (by protocol). 300,000 tested, 0.77% active;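 active = more than half of replicate wells show activity change below -50%, luminescence cut by over half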;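 also: luciferase reports HSF-1 transcriptional activity via heat shock element; 0% = median of DMSO wells and -100% = zero luminescence signal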
# HSF-1 act = HSF-1 activators, primary screen, NIH3T3-HGL cells, MG132 stress, luminescence, single point. NIH3T3-HGL HSF-1 luciferase reporter, 8 h; 100% = twice DMSO control signal. activation, % at 9 µM. 300,000 tested, 1.7% active;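 active = mean replicate activation of at least 50% with a set share of replicates each reaching 50%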;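 also: 0% = median of the neutral control wells and 100% = twice that signal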
# HSP90 refold inh = HSP90 inhibitors, primary screen, cell lysate, luminescence | Heat shock protein HSP 90 (rabbit reticulocyte lysate; luciferase refolding) | Rabbit reticulocyte lysate, luciferase refolding luminescence, 3 h | inhibition, % at 5.6 µM | 290,000 tested, 0.91% active;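 active = inhibition above the screen-wide mean plus 3 SD, computed separately per campaign, cut at about 16% in these data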;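 also: 0% = DMSO wells and 100% = 60 µM geldanamycin wells; inhibitors lower the luminescence because luciferase stays unfolded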
# IEC-6 tox = cytotoxicity in IEC-6 intestinal epithelial cells, primary screen, cytotoxicity control for KLF5 inhibitor project, cell-based, luminescence; 290,000 tested, 0.78% active; IEC-6 cytotoxicity, luminescence viability; inhibition, % at 5 µM; in the data active = inhibition above about 22%;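 also: 0% = plate median of test compound wells and 100% = cytotoxic reference compound wells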
# AI-2 QS mod = Vibrio harveyi AI-2 quorum sensing modulators, primary screen, JMH597 strain, luminescence/OD600 ratio | AID 2094, 2009 | Vibrio harveyi JMH597 AI-2 luminescence/OD600 ratio, 9 h; hits give low values; strain lacks LuxN and CqsS sensors; 0 = neutral-control median | 300,000 tested, 0.4% active | activity change, % at 7.5 µM; in the data active = activity change below about -75%, passing the limit was not always enough;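 also: luminescence divided by OD600 gain over 9 h not by final OD600 alone; inactives centre near 13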
# GSK3beta inhib = human GSK3beta kinase inhibitors, primary screen, biochemical, cell-free homogeneous, HTS; 300,000 tested, 0.038% active; activity score (negative = inhibition), % at 10 µM; GST-GSK3beta kinase, ADP-Glo luminescence, 60 min; hits give low values;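 active = more than half of replicate wells score below -50%, meaning over 50% inhibition versus plate controls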;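 also: 0% = median DMSO wells and -100% = median GW8510 positive control wells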
# Target sequence (P49841 whole entry, looked up): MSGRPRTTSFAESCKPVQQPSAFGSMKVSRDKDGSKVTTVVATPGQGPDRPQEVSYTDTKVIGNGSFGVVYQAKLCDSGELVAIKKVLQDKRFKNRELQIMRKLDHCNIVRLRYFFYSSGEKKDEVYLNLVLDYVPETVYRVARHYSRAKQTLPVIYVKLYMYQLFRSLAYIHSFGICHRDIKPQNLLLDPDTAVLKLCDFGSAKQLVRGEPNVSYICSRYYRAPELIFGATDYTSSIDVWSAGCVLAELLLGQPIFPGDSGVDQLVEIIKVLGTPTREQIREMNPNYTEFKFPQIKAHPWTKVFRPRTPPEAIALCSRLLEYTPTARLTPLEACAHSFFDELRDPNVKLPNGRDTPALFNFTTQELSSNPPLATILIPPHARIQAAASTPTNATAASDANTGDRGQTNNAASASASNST
#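 Test system – GST-tagged human GSK3beta kinase, cell-free · Incubation – 60 min enzyme reaction, room temperature · Signal – ADP-Glo luminescence · Also added – peptide substrate and ATP at 25 µM · Controls – DMSO neutral wells and GW8510 at 20 µM as positive · Buffer or medium – Tris/MgCl2 kinase buffer · Measure – Luminescence-derived activity versus plate DMSO and GW8510 wells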
# KLF5 inhibitor = KLF5 expression inhibitors, primary screen, DLD-1 cells, luminescence. DLD-1 KLF5 promoter-luciferase reporter. inhibition, % at 5 µM. 290,000 tested, 0.23% active. AID 1700, 2009;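 active = inhibition above a per-plate limit of that plate's mean compound inhibition plus 3 SD, cut at about 60% in these data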;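 also: 0% = DMSO wells and 100% = LY294002 at 200 µM; higher means less KLF5 promoter-driven luciferase light; inactives centre near -14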
# aSyn UTR inh = MLPCN primary screen, SNCA 5' untranslated region. alpha-synuclein 5'UTR reporter, inhibitor activity. inhibition, % (tested at 7.5 µM). 300,000 tested, 0.82% active; in the data active = inhibition above about 60%;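 also: H4 neuroglioblastoma cells stably carrying SNCA 5'UTR luciferase fusion; 0% = DMSO wells and 100% = positive control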
# GSK3 alpha inh = blockers of GSK3A enzyme activity – biochemical, luminescence, cell-free homogeneous, HTS, primary screen. Glycogen synthase kinase-3 alpha (Homo sapiens), P49840. GSK-3 alpha kinase, ADP-Glo luminescence, 60 min. inhibition, % at 10 µM. 320,000 tested, 0.1% active;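 in the data active = inhibition above about 50%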;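 also: GST-tagged GSK-3 alpha with peptide substrate and 25 µM ATP; 0% = DMSO neutral wells and 100% = GW8510 positive control wells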
# Target sequence (P49840 whole entry, looked up): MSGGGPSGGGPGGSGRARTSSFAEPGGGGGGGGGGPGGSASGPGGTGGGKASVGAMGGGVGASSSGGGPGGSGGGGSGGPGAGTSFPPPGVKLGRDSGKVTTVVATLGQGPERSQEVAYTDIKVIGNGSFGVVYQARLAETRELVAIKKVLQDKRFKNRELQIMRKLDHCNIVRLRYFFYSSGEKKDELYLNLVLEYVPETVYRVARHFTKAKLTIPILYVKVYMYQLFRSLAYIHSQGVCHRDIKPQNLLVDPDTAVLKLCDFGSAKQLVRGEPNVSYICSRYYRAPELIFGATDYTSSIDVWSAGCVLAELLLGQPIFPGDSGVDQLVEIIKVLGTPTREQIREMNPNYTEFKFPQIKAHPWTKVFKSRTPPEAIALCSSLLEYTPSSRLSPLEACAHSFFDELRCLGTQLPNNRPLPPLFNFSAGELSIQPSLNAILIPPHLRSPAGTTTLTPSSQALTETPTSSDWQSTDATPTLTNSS
# * = called active by the depositor; nt = not tested or not shown. An excerpt, so the mix of outcomes need not match the whole.
SMILES,HSF1 inhib,HSF-1 act,HSP90 refold inh,IEC-6 tox,AI-2 QS mod,GSK3beta inhib,KLF5 inhibitor,aSyn UTR inh,GSK3 alpha inh
NC1CCN(c2cccc(Cl)n2)CC1,4,0,nt,nt,5,-2,nt,4,-1
CC(=O)OC[C@H]1O[C@@H](O/N=C(\C)CCN2CCCCc3nc(C)c(C)cc32)[C@H](OC(C)=O)[C@@H](OC(C)=O)[C@@H]1OC(C)=O,-1,19,2,7,27,1,-5,-29,-1
CC(C)COCC(CN(Cc1ccccc1)c1ccccc1)N1CCCC1 (stereo unspecified),6,33,1,3,24,1,2,28,3
CCCC1CC(=O)OC1(C)C(=O)CSc1n[nH]c(-c2ccccc2)n1 (stereo unspecified),3,10,-2,3,41,2,-34,-66,-5
CCCCCCn1cc(C(=O)O)c(=O)c2ccccc21,-35,-43,2,1,3,3,-1,13,0
COC(=O)CCc1c(C)[nH]c(=S)[nH]c1=O,-3,-13,-3,2,-15,-1,10,-9,-2
CC(NC(=O)c1ccc(=O)oc1)c1ccccc1 (stereo unspecified),-11,-1,-1,1,25,2,-3,-25,-2
C[N+](C)(C)CCOP(=O)([O-])OC[C@H](O)CO,-3,-18,0,1,34,-4,-12,16,-1
COc1cc(C(=O)O)c([N+](=O)[O-])c(OC)c1OC,-3,-8,3,2,23,3,-4,-10,0
COc1ccc(O[C@H]2C=C[C@@H](c3ccccc3)O[C@@H]2COC(=O)CC/C(C)=N/O[C@@H](C)CN2CCCCc3nc(C)c(C)cc32)cc1,9,1,2,-6,2,2,7,-11,nt

# Copied from the list.
# HSF1 inhib, COc1ccc(O[C@H]2C=C[C@@H](c3ccccc3)O[C@@H]2COC(=O)CC/C(C)=N/O[C@@H](C)CN2CCCCc3nc(C)c(C)cc32)cc1 is entered as 9
# HSF1 inhib, NC1CCN(c2cccc(Cl)n2)CC1 is entered as 4
# AI-2 QS mod, CC(NC(=O)c1ccc(=O)oc1)c1ccccc1 (stereo unspecified) is entered as 25

# Remaining list, next part
SMILES,HSF1 inhib,HSF-1 act,HSP90 refold inh,IEC-6 tox,AI-2 QS mod,GSK3beta inhib,KLF5 inhibitor,aSyn UTR inh,GSK3 alpha inh
COC(=O)C1C(O)CCC2CN3CCc4c([nH]c5ccccc45)C3CC21 (stereo unspecified),16,25,nt,nt,-1,-2,nt,-37,-2
Cc1ccc(Oc2nc3c(c(=O)n(Cc4ccccc4F)c(=O)n3C)n2C)cc1,-2,11,0,2,9,0,-19,14,-1
O=C(O)CC1Sc2nc3ccccc3n2C1=O (stereo unspecified),-5,-14,7,0,45,5,-18,9,0
N#CC1=C2SCC(O)(c3ccccc3)N2C(=O)CC1c1ccccc1 (stereo unspecified),-1,-15,2,77*,11,0,56,-16,0
COc1ccc(/C(O)=C2\C(=O)C(=O)N(CCN(C)C)C2c2cccc(OC)c2OC)cc1 (stereo unspecified),-8,-2,6,-2,20,-3,-18,7,-1
COC(=O)C1=CO[C@@H](C)[C@H]2CN3CCc4c([nH]c5ccccc45)[C@@H]3C[C@H]12,nt,nt,nt,nt,nt,nt,nt,nt,1
O=c1[nH]c(=O)c2nc3ccccc3nc2[nH]1,-4,-10,nt,nt,28,0,nt,15,2
Nc1nc2c(nc(Br)n2[C@@H]2O[C@@H]3COP(=O)(O)O[C@H]3[C@H]2O)c(=O)[nH]1,-3,-9,nt,nt,23,-1,nt,-3,-2
COc1ccc(C(=O)NCCCCCC(=O)O)cc1OC,5,-7,1,0,18,2,6,0,-2
COc1ccc2c3c([nH]c2c1)C1CC2C(CC(O)C(OC)C2C(=O)O)CN1CC3 (stereo unspecified),-6,-10,0,9,11,0,-25,-36,1
CCOc1ccc(Br)cc1CC(=O)O,-2,12,3,-1,15,2,-15,4,-4
CCOC(=O)C(C)c1nc2ccccc2[nH]c1=O (stereo unspecified),-2,-1,2,12,5,-5,-28,0,-2
NC(=O)C1CCCNC1 (stereo unspecified),-5,-5,nt,nt,18,2,nt,10,-3
COc1ccc(CCN2CCC(Nc3nc4ccccc4n3Cc3ccc(F)cc3)CC2)cc1,-20,-16,8,4,18,3,-29,103*,1
CC(=O)OCC(=O)[C@H]1CC[C@H]2[C@@H]3CC=C4C[C@@H](O)CC[C@]4(C)[C@H]3CC[C@]12C,-3,-5,-2,-3,30,-3,-20,6,-4
COc1ccc(C(=O)/C=C/Nc2cccc(C)n2)cc1OC,17,23,1,-4,14,-4,-103,-195,2
c1ccc2c(c1)CCN(c1ncnc3c1[nH]c1ccccc13)C2,12,17,nt,nt,5,1,nt,-102,0
N#CC(C(=O)Nc1ccc(Cl)c(Cl)c1)=C1Nc2ccccc2N1,-6,23,0,2,10,1,-21,-23,-3
CCOc1cc(C2Nc3ccccc3C(=O)N2c2ccccc2OC)ccc1O (stereo unspecified),3,33,-2,-5,42,-2,-40,-15,-1
O=C1OC(=O)C2C3CCC(O3)C12 (stereo unspecified),nt,nt,nt,nt,nt,nt,nt,nt,-3
COc1ccc(OC)c(NC(=O)CSC2=C(C#N)C(c3ccco3)C3=C(CCCC3=O)N2)c1 (stereo unspecified),23,38,-2,1,-1,0,4,-15,-7
CCN(CC)C(=O)CN(C#N)c1nc(NC(C)C)nc(NC(C)C)n1,2,18,-2,1,21,2,-44,15,-2
COc1ccc(-c2nn3c(-c4ccccn4)nnc3s2)cc1OC,-8,12,1,3,2,1,-11,18,4
OC[C@H]1O[C@@H](n2cnc3c(Nc4ccccc4)ncnc32)[C@H](O)[C@@H]1O,-4,-14,4,0,26,0,6,-79,2
CN(C)CCCN1c2ccccc2CCc2ccc(Cl)cc21,-3,-8,-1,-3,-6,-3,-33,-27,4
CC1(C)CN(O)CCN1O,-11,-3,-4,-4,2,-2,1,-8,0
COc1ccc(C2=Nn3c(nnc3-c3cccnc3)SC2)cc1OC,-6,-6,nt,nt,39,-1,nt,45,4
Nc1ncn(C2O[C@H](CO)[C@@H](O)[C@H]2O)c(=O)n1 (stereo partly specified),nt,nt,nt,nt,nt,nt,nt,nt,-2
CC(C)(C)c1cc(-c2ccco2)c(C#N)c(SCC#N)n1,12,-9,2,1,21,-1,-32,48,-2
Cc1cc(N2C(=O)C(=O)/C(=C(/O)c3ccccc3)C2c2cccs2)no1 (stereo unspecified),8,-8,-2,0,3,2,-8,-9,-5
CNC(CC(C)C)C(=O)NC1C(=O)NC(CC(N)=O)C(=O)NC2C(=O)NC3C(=O)NC(C(=O)NC(C(=O)O)c4cc(O)cc(O)c4-c4cc3ccc4O)C(O)c3ccc(c(Cl)c3)Oc3cc2cc(c3OC2OC(CO)C(O)C(O)C2OC2C[C@](C)(N)C(O)C(C)O2)Oc2ccc(cc2Cl)C1O (stereo partly specified),nt,nt,nt,nt,nt,nt,nt,nt,-2
CCOC(=O)c1c(C)n(C)c2ccc(O)c(S(=O)(=O)c3ccccc3)c12,3,-8,-1,-7,28,1,2,11,4
N#CC(C#N)C(c1ccsc1)c1c(-c2ccccc2)[nH][nH]c1=O (stereo unspecified),12,29,7,0,7,-2,-25,26,17
Cn1c(=O)c2c(ncn2CC(O)CO)n(C)c1=O (stereo unspecified),2,5,3,2,21,-1,9,6,11
Nc1nc2ncc(CNc3ccc(C(=O)N[C@@H](CCC(=O)O)C(=O)O)cc3)nc2c(=O)[nH]1,0,2,3,-1,6,1,-22,9,-1
CCCCNC(=O)N1CCOCCOCCN(C(=O)NCCCC)CCOCC1,-2,-6,-4,0,12,3,-3,-15,-1
CC(C(=O)N1CCCCC1)N1C(=O)c2ccccc2C1=O (stereo unspecified),4,5,2,-1,17,-1,-57,-30,-4
COC(=O)C1C(=O)CC(C)(O)C(C(=O)OC)C1c1ccccc1F (stereo unspecified),-4,11,-4,-4,20,-1,2,2,0
Cc1cc2c(c(=O)n1CC1CCCO1)C(c1ccc3c(c1)OCO3)C(C#N)=C(N)O2 (stereo unspecified),-5,-11,-2,3,23,-1,-9,17,0
COc1ccc(Cl)cc1C(=O)NCCc1ccc(S(=O)(=O)NC(=O)NC2CCCCC2)cc1,4,8,3,-1,35,2,2,6,-3
COc1ccc(Cn2c(=O)c3c(nc(NCCO)n3C)n(C)c2=O)cc1,1,-2,5,-1,11,0,-27,17,-1
CCOC(=O)CSc1nc(C)c(C(C)=O)cc1C#N,-3,-2,-3,7,15,1,-51,-17,-2
Cn1c(=O)[nH]c(=O)c2c1nc(N1CCN(c3cccc(Cl)c3)CC1)n2CCCc1ccccc1,-9,0,0,1,21,-2,-13,19,nt
CC1(C)CC(=O)C2=C(C1)OC(N)=C(C#N)C21C(=O)N(CN2CCOCC2)c2ccccc21 (stereo unspecified),-6,1,-2,-2,5,-2,-16,-11,-1
Cc1ccccc1OCc1nc2ccccc2c(=O)n1NC(=O)c1ccco1,-1,-7,1,-4,16,1,18,14,-1
COc1cc(C)nc(Oc2ccc(=O)[nH]n2)n1,-4,1,3,-4,15,0,7,14,0
CC(NC(=O)CSc1nc2c(cc1C#N)CN(C)CC2)c1ccccc1 (stereo unspecified),-3,-9,3,1,21,0,-10,16,21
CS(=O)(=O)CCC(C(=O)n1nnc2ccccc21)N1C(=O)c2ccccc2C1=O (stereo unspecified),1,3,-2,3,36,1,-17,-4,1
CC12CN3CC(=O)N4CC5(C)CN(CC(C)(C4)C5=O)C(=O)CN(C1)CC(C)(C3)C2=O,-8,-4,0,-4,14,-4,-15,8,-4
O=C(O)CCCC[C@@H]1SC[C@@H]2NC(=O)N[C@@H]21,4,0,nt,nt,-2,2,nt,9,3

# (listing goes on)
SMILES,HSF1 inhib,HSF-1 act,HSP90 refold inh,IEC-6 tox,AI-2 QS mod,GSK3beta inhib,KLF5 inhibitor,aSyn UTR inh,GSK3 alpha inh
COc1ccc(CSc2nnc(C)n2N)cc1Br,2,16,-3,1,11,-4,8,-11,nt
CSCCC(CO)NC(=O)OCc1ccccc1 (stereo unspecified),12,8,-1,-6,17,0,-15,11,-2
O=c1n(CCCN2CCN(c3cccc(Cl)c3)CC2)nc2ccccn12,2,-5,-1,-7,31,5,-12,-19,-1
CCN(CC)CCN1C(=O)C(=O)/C(=C(/O)c2ccc(OC)cc2)C1c1ccco1 (stereo unspecified),3,14,-2,2,22,0,-14,-12,0
O=C(O)c1cc2n(n1)C(C(F)(F)F)CC(c1ccccc1)N2 (stereo unspecified),-7,9,0,-1,9,-3,-37,1,14
O=C1[C@H]2[C@H]3[C@H](O)[C@H](O)C/C(=N\OC[C@@H](O)COCc4ccco4)[C@@H]3CC[C@H]2C(=O)N1c1ccc(F)cc1F,-9,-25,-1,-4,2,-5,5,2,-3
CC(C)(C)c1ccc(NS(=O)(=O)c2ccc(N)cc2)cc1,3,-4,3,-2,-63,3,-14,-36,0
CNC(=O)CCn1nc(-c2ccccc2)c2ccccc2c1=O,1,10,-1,-3,13,1,-35,2,0
C=CCc1ccccc1OCC(O)CNC(C)C (stereo unspecified),2,0,2,-3,19,0,-2,-14,nt
